MT1-MMP act inh: inhibitors of human MT1-MMP activation; actives 0.061% (n = 360,000); AID 651647; P50281; HT1080 RFP-PRO-GFP cells, GFP/RFP ratio fluorescence, overnight; percent of plate control window, DMSO zero; GFP/RFP ratio change, % at 20 µM;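 active = GFP/RFP ratio change of at least 30% with cell ATP level not reduced by more than half and red fluorescence within 50% of control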; also: strong numbers were not always called active
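system = RFP-PRO-GFP reporter HT1080 cells | dosing = 20 µM single dose, 1% DMSO | timing = overnight cell settling, then overnight compound exposure, 37 °C, 5% CO2 | read-out basis = GFP/RFP fluorescence ratio | controls = DMSO and RFP-L50D-GFP cell wells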
CSC inhib: blocks cancer stem cells | inhibition, % at 7.5 µM | actives 1.1% (n = 300,000) | cancer stem cell-like cells viability, luminescence | AID 2717;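 active = mean at 75% or more and at least half the replicates too; inconclusive = mean and replicates disagree; tested in HMLE shEcad cells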;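 also: 0% = median of negative and 100% = median of positive control wells; the first replicate is given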
eIF4H inh: inhibitors of RNA binding by human eIF4H; AID 2012; actives 0.94% (n = 290,000); inhibition, % at 35 µM; eIF4H fluorescence polarization binding assay;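 active = 50% or more with normal probe brightness, or confirmed in later tests; inconclusive = above 50% with abnormal brightness, or retests that disagree; inactive = below 50% or failed in later tests; about a fifth of its hits are not listed in these tables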;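 also: calls also rest on retests at 20 µM and on dose response follow-up; 0% = protein and probe with vehicle and 100% = probe without protein; strong numbers were not always called active; many hits fall short of the cut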
PABP FP inh: blocks human PABP binding to poly(A) RNA; actives 1% (n = 290,000); inhibition, % at 35 µM; AID 2014; P11940; fluorescence polarization;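 active = 50% or more with normal probe brightness, or confirmed in later tests; inconclusive = above 50% with abnormal brightness, or retests that disagree; inactive = below 50% or failed in later tests; about a fifth of its hits are not listed in these tables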;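 also: calls also rest on retests at 20 µM and on dose response follow-up; controls were probe without protein and protein plus probe with vehicle; some compounds called inactive have numbers as strong as hits; many hits fall short of the cut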
HIV Env fusion: inhibitors of HIV Env-mediated cell fusion; HeLa-JRFL Env/CEM21 cell fusion, luciferase; actives 1.1% (n = 360,000); inhibition, % at 12.3 µM;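 active = mean replicate inhibition score of at least 50 and every replicate individually at or above 50; inconclusive = only one of the two criteria met; inactive = mean below 50 and not all replicates reaching 50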;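 also: 0% = plate neutral controls and 100% = maraviroc near 300 nM; one replicate is shown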
UUG fidelity: yeast start codon fidelity modulation | S. cerevisiae UUG-firefly luciferase reporter, luminescence/redox ratio | activity score, % at 18.7 µM | actives 0.13% (n = 350,000);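 active = replicate mean at a twofold rise or more, about +100% in these data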;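 also: firefly luciferase made from a UUG start codon reports start codon fidelity; reporter light over untreated wells divided by growth signal over untreated wells; some hits fall short of that in this replicate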
Rce1 inhib: inhibitors of yeast Ras-converting enzyme; Q03530; calls only; actives 0.27% (n = 290,000); yeast membranes, quenched prenylated peptide cleavage fluorescence;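 active = fall in fluorescence gain of 50% or more versus controls, with final raw signal at or below 3038400; inconclusive = same 50% fall but final raw signal above 3038400; inactive = fall in fluorescence gain under 50%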;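 also: plate controls were neutral control wells for no effect and wells lacking membranes for full effect; tested at 10 µM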
Target sequence (Q03530 whole entry, looked up): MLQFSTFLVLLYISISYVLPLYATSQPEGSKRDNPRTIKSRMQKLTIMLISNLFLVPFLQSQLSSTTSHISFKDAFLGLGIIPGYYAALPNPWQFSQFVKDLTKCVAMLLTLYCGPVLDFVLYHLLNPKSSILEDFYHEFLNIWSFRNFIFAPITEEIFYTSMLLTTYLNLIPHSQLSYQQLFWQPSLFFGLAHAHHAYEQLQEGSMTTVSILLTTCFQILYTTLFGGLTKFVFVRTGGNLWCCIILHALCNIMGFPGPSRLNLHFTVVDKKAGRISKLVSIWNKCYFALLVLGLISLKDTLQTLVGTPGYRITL
MT1-MMP act inh RFP: recorded beside MT1-MMP act inh, whose call it bears; RFP signal change, %; measured here: RFP expression control read;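 0 = vehicle wells; hits needed this value within 50% of zero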
The depositor's hits bear a star; i = inactive; ? = inconclusive; . = not tested or not shown; + = active, no number.

Every second line gives: eIF4H inh | Rce1 inhib | PABP FP inh | CSC inhib | UUG fidelity | MT1-MMP act inh | HIV Env fusion | MT1-MMP act inh RFP
1. CCc1ccc(NC(=O)CC2NCCNC2=O)cc1 (configuration not stated)
→ -7.1 | i | -7.0 | 0.8 | -9.6 | 4.1 | . | 1.9
2. Cc1ccccc1-c1csc(C(O)(c2ccccc2)C(F)(F)F)n1 (configuration not stated)
→ . | . | . | . | -16.9 | -5.2 | -2.0 | -6.3
3. Cc1oc(-c2cccs2)nc1CS(=O)CC(=O)NC1CCCCCC1 (configuration not stated)
→ 8.0 | i | 3.4 | -8.5 | -12.9 | -3.8 | 23.1 | 2.9
4. O=C(O)CN1CCCCCC1=O
→ 1.5 | i | -9.4 | -4.6 | 4.4 | -1.5 | -1.9 | 2.5
5. CCN(CC(=O)NCc1ccc(Cl)cc1)C(=O)COc1cccc(Cl)c1
→ . | i | . | -7.3 | 2.3 | -0.8 | . | -4.1
6. COc1ccc(N2CCN(c3ccc(NC(=O)/C=C\C(=O)O)cc3)CC2)cc1
→ 8.4 | i | 10.9 | -2.3 | -15.0 | 6.8 | 1.1 | 0.6
7. CCn1c(CCn2ccnc2C)n[nH]c1=S
→ 2.4 | i | -8.4 | 1.5 | . | -2.2 | 7.4 | 2.8
8. O=[N+]([O-])c1cc2c(cc1Br)-c1ccccc1C2
→ . | . | . | . | -13.4 | 2.3 | i | 1.8
9. C=C(C)CSc1nc2nc(C)cc(C)n2n1
→ -14.5 | i | -6.1 | 3.1 | -10.3 | 2.1 | -29.1 | 2.2
10. O=[N+]([O-])c1ccc(-c2nc(Nc3ccc(O)cc3)c3ccccc3n2)cc1
→ -8.3 | i | -4.1 | 47.2 | -4.4 | -2.9 | 21.9 | -0.9
11. CCN1CCN(c2ncnc3scc(-c4ccc(OC)cc4)c23)CC1
→ -1.7 | i | -2.6 | -10.1 | -9.4 | -19.4 | 22.7 | -8.7
12. CCOc1ccc(CN(C)CC(=O)NCc2ccccc2)cc1
→ 21.8 | i | -1.1 | -8.3 | . | 1.1 | 13.8 | -1.1
13. COc1ccc(N2CCN(S(C)(=O)=O)CC2)cc1
→ 6.2 | i | 2.0 | . | -18.9 | 4.1 | -56.6 | 7.6
14. C/C(=N\NC(=O)c1c[nH]c2ccccc12)c1ccc(C)s1
→ -8.6 | i | -5.0 | -34.9 | 7.9 | 2.0 | -16.8 | -2.6
15. O=C(c1cc(Br)ccc1Cl)N1CCN(c2ccccn2)CC1
→ -7.3 | i | 0.6 | -20.3 | -3.5 | 1.4 | 10.1 | -1.1
16. Cc1nc(NC(=O)c2cccc(-c3cc4ccccc4oc3=O)c2)ccc1Br
→ 0.4 | + | 22.6 | -4.6 | . | 4.9 | -6.8 | 4.0
17. COc1cc(CN2CCCCCC2)cc(OC)c1O
→ 0.1 | i | -3.3 | -0.8 | -20.4 | -3.1 | 7.8 | 0.9
18. O=C(COC(=O)c1ccc(Cl)nc1)Nc1ccc(Cl)cc1
→ . | . | . | . | -13.1 | -1.7 | -5.3 | 1.9
19. COc1ccccc1C1N(c2ccc(Cl)cc2)C(=O)C2CCCN21 (configuration not stated)
→ -2.8 | i | -1.8 | 5.5 | -4.4 | 0.9 | -47.4 | 8.6
20. CC(=O)c1cccc(OCCN2C(=O)NC(C)(C)C2=O)c1
→ 0.2 | i | 11.8 | -8.2 | -6.9 | 8.3 | -18.4 | 1.5
21. CC1CCCC(NC(=S)NC(=O)c2ccccc2Br)C1C (configuration not stated)
→ 4.3 | i | 6.9 | 0.7 | -19.6 | -1.3 | 6.1 | 2.0
22. N/C(=N\OC(=O)/C=C/c1ccccc1)c1ccccn1
→ -1.5 | i | -8.3 | -3.6 | -66.3 | 1.9 | -78.7 | 6.5
23. CC1CCCN(S(=O)(=O)c2ccc(NC(=O)Cn3nnc(-c4ccccc4F)n3)cc2)C1 (configuration not stated)
→ -8.6 | i | -6.5 | 8.4 | 11.2 | 6.4 | -8.3 | -1.7
24. COC(=O)CCC/C=C1\SC[C@@H](NC(=O)c2ccccc2)C1NC(C)=O (some centres not stated)
→ -0.3 | i | 4.8 | . | . | -1.5 | -16.1 | 1.3
25. COc1ccc(-n2c(SCC(=O)N(C)c3ccccc3)nc3c([nH]c4ccccc43)c2=O)cc1OC
→ -9.5 | i | 1.5 | -16.3 | -11.9 | -6.6 | -18.5 | -2.3
26. Cc1nn(CC(=O)Nc2ccc3c(c2)nc(CN2CCCCC2)n3C)c(=O)c2ccccc12
→ -4.4 | i | -16.6 | -7.9 | -24.1 | 6.3 | . | 4.2
27. CCOc1ccc(CCNC(=O)CS(=O)Cc2nc(-c3ccc(C)cc3)oc2C)cc1OCC (configuration not stated)
→ -4.9 | i | 16.4 | -10.8 | -11.5 | 2.3 | 15.3 | -2.7
28. CCN(CC)C(=O)CSc1nnc(CSc2ncccn2)n1C
→ 4.3 | i | -4.5 | -25.3 | 2.6 | 2.0 | 9.9 | 3.7
29. COC(=O)C1=C(N)Oc2cc(C)n(Cc3cccnc3)c(=O)c2C1c1cc(OC)ccc1OC (configuration not stated)
→ -2.1 | i | -12.2 | 12.9 | -16.8 | -1.8 | . | 3.4
30. COc1ccccc1NC(=O)c1sc2ncn(Cc3cccc4ccccc34)c(=O)c2c1C
→ 3.4 | i | 10.4 | 2.8 | 11.9 | 0.4 | 8.7 | 1.9

2 successive entries from above, quoted:
Every second line gives: eIF4H inh | Rce1 inhib | PABP FP inh | CSC inhib | UUG fidelity | MT1-MMP act inh | HIV Env fusion | MT1-MMP act inh RFP
18. O=C(COC(=O)c1ccc(Cl)nc1)Nc1ccc(Cl)cc1
→ . | . | . | . | -13.1 | -1.7 | -5.3 | 1.9
19. COc1ccccc1C1N(c2ccc(Cl)cc2)C(=O)C2CCCN21 (configuration not stated)
→ -2.8 | i | -1.8 | 5.5 | -4.4 | 0.9 | -47.4 | 8.6

Additional compounds follow:
Every second line gives: eIF4H inh | Rce1 inhib | PABP FP inh | CSC inhib | UUG fidelity | MT1-MMP act inh | HIV Env fusion | MT1-MMP act inh RFP
31. Cc1snc(SCC(=O)c2ccc([N+](=O)[O-])cc2)c1C#N
→ 6.1 | . | -17.2 | . | . | 2.6 | -8.5 | -3.0
32. O=C(N/N=C/c1cc([N+](=O)[O-])ccc1Cl)c1cnccn1
→ -0.3 | i | 0.1 | 57.8 | -10.6 | 8.4 | -16.1 | -0.5
33. COc1ccc(S(=O)(=O)N(C)CC(=O)NCc2ccc3c(c2)OCO3)cc1
→ 5.2 | i | -4.8 | -8.6 | -19.3 | -0.8 | 3.0 | -0.1
34. CCN(CC(=O)Nc1ccc(C(=O)OC)cc1)C1CCCCC1
→ 2.9 | i | -5.6 | -10.0 | -6.2 | -0.5 | 8.5 | 3.5
35. COc1cc(/C=C2/NC(=O)NC2=O)cc(Br)c1OCc1ccccc1
→ -1.2 | i | -8.9 | -3.2 | . | 4.2 | -4.6 | 7.4
36. Cc1cc(C)nc(N(C#N)Cc2cccc(Cl)c2)n1
→ -12.7 | i | -0.6 | 2.7 | . | -0.2 | 8.2 | 0.8
37. Cc1ncccc1C(=O)N1CCCC(CNC(=O)C2(c3ccc(Cl)cc3)CC2)C1 (configuration not stated)
→ 0.2 | i | -1.8 | 4.2 | 4.6 | 0.6 | 13.5 | 4.3
38. Cc1cc(=O)oc2cc(NC(=O)c3cc4ccccc4o3)ccc12
→ 20.2 | i | -0.8 | -4.1 | . | . | . | .
39. CCOP(=O)(OCC)C(Nc1ccccc1)c1ccco1 (configuration not stated)
→ -6.5 | i | -13.4 | 11.6 | -4.7 | 0.0 | 4.0 | 1.7
40. CCCNc1nc(Cl)nc(NC(C)(C)C)n1
→ -2.7 | i | ? | 0.9 | -8.3 | -2.5 | -10.2 | -3.0
41. Cc1cccc(NC(=O)Cn2c(=O)n(Cc3ccco3)c(=N)c3c4c(sc32)COC(C)(C)C4)c1
→ -6.8 | i | -1.4 | -4.7 | -5.7 | -4.1 | . | -1.3
42. CC(=O)NCC(=O)OCN1C(=O)c2ccccc2C1=O
→ -1.8 | i | -10.9 | 3.3 | -10.3 | 3.9 | . | 3.4
43. O=C(CCn1cncn1)N1CCCC(N2CCN(c3ccc(F)cc3)CC2)C1 (configuration not stated)
→ -13.7 | i | -8.0 | -13.3 | -17.0 | -1.0 | -1.8 | 2.2
44. COc1ccc(OCCOc2ccc(/C=C3\C(=N)N4N=C(C)SC4=NC3=O)cc2)cc1
→ . | . | . | -12.3 | -21.1 | -4.7 | -5.6 | -0.7
45. O=C(COC(=O)c1cccnc1SCC(=O)NCc1ccccc1)NCc1ccccc1
→ 12.5 | i | 3.0 | -9.0 | -18.3 | -2.7 | -118.7 | -2.5
46. Cn1nccc1CNC(=O)c1ccnn1C
→ -7.2 | i | -2.2 | -13.2 | -0.6 | 0.1 | -8.0 | 1.8
47. COc1ccc(-c2nc(C)c(C(C)=O)n2O)cc1OC
→ -2.1 | i | 1.5 | 7.2 | -11.5 | 1.7 | . | 0.7
48. CCN(CC(=O)Nc1c(F)cccc1F)C(=O)c1cccc(-n2cccc2)c1
→ . | i | . | -12.8 | -15.7 | -2.5 | -3.8 | 0.9
49. BrC(=C\c1ccccc1)/C=N/Nc1nc(N2CCOCC2)nc(N2CCOCC2)n1
→ -8.6 | i | -7.7 | 5.1 | . | -1.4 | 9.9 | -2.7
50. Cc1ccc(CN(C)C(=O)c2ccc(S(=O)(=O)N3CCCCCC3)cc2)o1
→ . | . | . | . | -5.7 | 3.3 | 17.1 | -2.4
51. Cc1c(NC(=O)C2CCN(S(=O)(=O)c3cccs3)CC2)c(=O)n(-c2ccccc2)n1C
→ -7.3 | . | -12.4 | -5.3 | -3.9 | 1.5 | 3.4 | -1.2
52. CCOC(=O)c1c(-c2ccccc2)oc2ccc(OCC(=O)O)cc12
→ -0.9 | ? | 24.0 | 28.9 | . | 4.3 | -0.1 | 4.1
53. Cc1cccc(OCCn2c(=O)n(C)c3ccccc32)c1
→ -1.9 | i | -5.0 | -8.6 | 5.4 | -0.2 | -27.7 | 2.5
54. COc1ccc(/C=C/C(=O)Oc2cccc(/C=N/NC(=O)COc3c(C)cccc3C)c2)cc1
→ -2.4 | i | -4.4 | 11.6 | -16.4 | 1.1 | . | 3.9
55. O=C(CN1CCN(S(=O)(=O)c2ccc(Br)cc2)CC1)Nc1ccc(F)cc1F
→ -1.5 | i | -4.5 | -10.2 | . | -6.8 | . | -8.6
56. O=S(=O)(NCc1ccccc1)c1ccc(-c2cnc(C3CC3)o2)cc1
→ 5.1 | i | 9.1 | 50.5 | -7.9 | -3.7 | -11.7 | -9.4
57. CN(Cc1ccon1)C(=O)CC1C(=O)NCCN1Cc1ccc(Cl)c(F)c1 (configuration not stated)
→ -8.9 | . | -8.1 | -2.6 | -8.7 | -3.0 | . | 4.6
58. Cc1ccc(NC(=O)CSc2nc(N)c3cc4c(nc3n2)CCCC4)cc1
→ -8.3 | i | 6.9 | -13.2 | -2.9 | 1.7 | . | -1.3
59. COc1ccc(N2CCN(C(=O)c3cccnc3SCc3cccc(Br)c3)CC2)cc1
→ -7.4 | i | -10.3 | 14.7 | 2.3 | 1.3 | 26.8 | -5.9
60. COc1ccc(NC(=S)SC)cc1OC
→ 11.9 | i | 7.0 | -0.6 | . | 2.5 | 32.2 | -0.9
61. COCCN(Cc1ccccc1)C(=O)c1cccc(S(=O)(=O)N2CCCc3ccccc32)c1
→ . | . | . | -3.5 | 8.1 | -3.0 | 43.7 | -12.8
62. CCOc1ccc(OCC(=O)N2CCN(S(=O)(=O)c3ccccc3)CC2)cc1
→ . | . | . | . | -5.4 | 4.9 | 13.9 | 1.1
63. COC(=O)c1ccccc1NC(=S)N1CCN(c2ccccc2)CC1
→ -0.8 | i | -1.6 | -3.7 | -11.6 | 5.1 | -4.5 | 2.1

Source: PubChem BioAssay

Compounds as they come; 2.9% or so of the library scored in one or more.
